TRPML1 agonist: activates the human TRPML1 channel; actives 0.12% (n = 410,000); activation, % (no concentration beside the values); Q9GZU1; AID 624414; TRPML1-expressing cells, Ca2+ dye fluorescence, FDSS; host cell line not named in the record; reference of the full effect not given here; in the data active = activation above about 50%; inconclusive = about 30% to 50%; inactive = below about 30%; also: 0% is about no effect; the text of the record puts the active cut at 80%
Target sequence (Q9GZU1 whole entry, looked up): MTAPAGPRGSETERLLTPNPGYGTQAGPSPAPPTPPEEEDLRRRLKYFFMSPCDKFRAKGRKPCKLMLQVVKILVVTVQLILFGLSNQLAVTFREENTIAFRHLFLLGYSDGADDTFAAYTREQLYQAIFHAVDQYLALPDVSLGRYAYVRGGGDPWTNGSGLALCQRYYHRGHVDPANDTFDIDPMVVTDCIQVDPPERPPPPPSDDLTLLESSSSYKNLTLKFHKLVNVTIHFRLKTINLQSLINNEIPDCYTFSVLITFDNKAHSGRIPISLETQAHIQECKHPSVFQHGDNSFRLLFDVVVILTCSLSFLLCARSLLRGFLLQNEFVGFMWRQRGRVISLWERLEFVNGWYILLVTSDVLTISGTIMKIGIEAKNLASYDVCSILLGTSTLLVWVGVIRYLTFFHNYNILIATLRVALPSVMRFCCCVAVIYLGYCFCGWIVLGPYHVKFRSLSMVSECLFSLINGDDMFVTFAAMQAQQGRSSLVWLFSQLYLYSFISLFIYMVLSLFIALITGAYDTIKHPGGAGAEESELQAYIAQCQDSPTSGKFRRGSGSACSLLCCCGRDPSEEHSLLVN
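Calcium fluorescence on an FDSS kinetic reader gave the read-out. Tet-induced TRPML1-DL cells were plated overnight, dye-loaded (Ca8 with quencher, 45-90 min, room temperature, dark), then read 110 s after compound addition, and again 110 s after 4uM final 54-4 (EC80).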
ClpP mod: qHTS Assay for Activators of ClpP. AID 651965, 2013. Potency, µM (titrated, usually from 57.5 µM), for the others: at the top dose activity change, negative = active. ATP-dependent Clp protease proteolytic subunit (Bacillus subtilis (strain 168)), P80244. actives 1.9% (n = 340,000). purified B. subtilis ClpP, FRET peptide cleavage, 20 min; active = well fitted falling curve with a large enough effect; inconclusive = small, poorly fitted or top-dose-only effect; inactive = no such curve, though single readings can be large or run the other way; also: potency is read from the fitted curve at half-maximal effect; the source files actives as falling curves though it sought activators and does not explain the sign; nearly all actives have a fitted effect of over 65% in size; many hits overshoot -100%
Target sequence (P80244 whole entry, looked up): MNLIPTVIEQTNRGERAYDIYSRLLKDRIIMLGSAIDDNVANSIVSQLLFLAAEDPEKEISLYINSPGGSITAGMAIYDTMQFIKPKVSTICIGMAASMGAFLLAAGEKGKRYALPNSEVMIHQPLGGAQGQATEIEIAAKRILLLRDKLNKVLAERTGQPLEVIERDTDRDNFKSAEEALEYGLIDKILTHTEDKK
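ClpP 10 microg/mL final, pH 8 Tris/KCl buffer with BSA, glycerol, Tween-20; compound pinned in; FRET-FV substrate; RT 20 min; Ex320/Em430; ΔFRET vs ADEP 5.8 microM, DMSO, no enzyme.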
TRPML1 inh: human mucolipin-1 channel inhibition; Q9GZU1; TRPML1-inducible cells, Ca2+ dye fluorescence, FDSS; hits give low values; inhibition of EC80 agonist-evoked calcium signal; activity change, negative = inhibition, % (test concentration not listed); actives 0.02% (n = 390,000); in the data active means activity change below about -50%; inconclusive means about -30% to -50%; inactive means above about -30%;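 also: stimulus is agonist 54-4 at its EC80 concentration; % is scaled to controls: 0 for no effect and ±100 for the full control effect; compound concentration not given in the record; the text of the record puts the active cut at -80%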
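Calcium fluorescence in TRPML1-DL cells induced overnight with Tet: a 110 s read after compound pin addition, then a 110 s antagonist read after challenge with 54-4 at 4 uM final (EC80).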
Menin MLL FP FL: inhibitors of human menin-MLL interaction, wild-type MLL peptide; Fluorescence polarization, fluorescein-MLL peptide displacement from menin; FP activity change, % at 61.4 µM; 290,000 tested, under 10 active; inconclusive = falling polarisation curve, or a change in total fluorescence; inactive = total fluorescence flat and polarisation flat or rising; no compound was filed as active; the % refers to the polarisation; negative = inhibition;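 also: % of control where 0% means no effect; inhibitors lower the polarisation; unlabelled MLL peptide was the positive control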
gsp antag: gsp mutant antagonism | AID 624288 | gsp-mutant cells, cAMP HTRF, 30 min; control for the full effect not named in the record | actives 0.4% (n = 340,000) | Potency, µM (highest dose often 76.9 µM), for inactives: at the highest dose activity change, negative = inhibition, usual class: inhibitors; active = falling curve of any shape with a large fitted effect; inconclusive = falling curve, mostly with a smaller effect; inactive = flat or rising curve; cell line not stated here;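 also: intracellular cAMP measured with PDE inhibitor Ro 20-1724 present during compound exposure; potency is read from the fitted curve at half-maximal effect; % is scaled to controls: 0 for no effect and ±100 for the full control effect; nearly all actives have a fitted effect of over 65% in size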
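Cells, 2000/well, grown 16–24 h in DMEM 10% FBS with 0.5 mg/ml G418, then compounds plus […] (300 uM addition stock), 30 min at 37C. cAMP read by HTRF (cAMP-d2 and anti-cAMP antibody-K in lysis buffer) after 30 min RT.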
gsp ag: agonists of gsp mutant (McCune-Albright syndrome); Potency, µM (titrated, usually from 76.9 µM), inactives show top-dose activation (cAMP increase), hits mostly activators; AID 624287; actives 0.13% (n = 340,000); gsp mutant cells, cAMP HTRF, 30 min; control for the full effect not named in the record; active = well fitted activation curve with a large enough effect; inconclusive = small, poorly fitted or top-dose-only effect, or another doubt; inactive = no such curve, though single readings can be large or run the other way; cell line not stated here;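 also: phosphodiesterase inhibitor Ro 20-1724 added with compounds to block cAMP breakdown; potency is read from the fitted curve at half-maximal effect; nearly all actives have a fitted effect of over 60% in size; about a fifth of the inactives were tested at one dose only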
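Cells in DMEM/10% FBS with G418 were pretreated with compounds in DMSO plus […] (300 uM stock) for 30 min at 37C. cAMP was measured by HTRF (cAMP-d2 plus anti-cAMP antibody-K) after 30 min at room temperature.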
* marks the source's active call; other numbers are inactive results; u = inconclusive; x = no result given; & = joins results of further samples; [ ] = dose if it differs, or a comment.

SMILES | TRPML1 agonist | ClpP mod | TRPML1 inh | Menin MLL FP FL | gsp antag | gsp ag
C#CCOCCOCCOCCNc1nc(N2CCN(C(=O)CCCCCCCCCCNC(=O)[C@@H](CCSC)n3cc(CCO)nn3)CC2)nc(N2CCN(C(=O)CCCCCCCCCCNC(=O)[C@H](CCC(=O)O)n3cc(CCCCCN)nn3)CC2)n1 | 0.3 | 0.3% | -0.5 | x | 3.1% | -55.1%
Cc1ccc(Cl)cc1-n1c(CCC(=O)O)ccc1-c1cccs1 | -0.5 | -7.5% | 3.1 | x | x | x
Cc1ccc2c(=O)cc(C(=O)Nc3ccc(S(=O)(=O)N4CCCCC4)cc3)oc2c1C | 2.4 | 0.5% | 8.0 | x | x | x
O=C(Nc1cccc(-c2cccc(Cl)c2)c1)C1CCN(C2CCC2)CC1 | 3.7 | -4.6% | -2.2 | x | 20.2% | 65.7%
Cc1noc(C)c1COc1ccc(C(=O)OCC(=O)N2c3ccccc3NC(=O)C2(C)C)cc1 | 0.7 | -2.8% | -7.1 | -0.9 | u | -20.5%
COc1ccc(OCCNC(=O)CCCO)cc1 | -0.5 | -0.3% | 1.7 | 2.1 | 5.0% | 2.2%
CCOC(=O)Cn1ncc(-c2ccccc2)c1N | -0.7 | -3.3% | -2.2 | 2.2 | -3.8% | -51.9%[inhibitor]
COCCNC(=O)CSc1ccccc1C(=O)NC1CCCc2ccccc21 (configuration not stated) | -0.5 | x | 6.1 | 0.2 | -3.5% | 15.4%[15.4 µM]
Cn1c(SCC(=O)CC(=O)Nc2ccccc2)nnc1-c1ccc(O)cc1 | -0.1 | 0.8% | 2.2 | 0.3 | -8.1% | -12.4%
Cc1cc2nnc(SCC(=O)NCc3ccco3)n2c2ccccc12 | 0.5 | -5.9% | 6.2 | x | 33.6% | u
Cc1[nH]n(-c2ccccc2)c(=O)c1C=Nc1ccc(S(=O)(=O)Nc2nccs2)cc1 | 3.5 | -2.4% | 7.0 | -1.1 | u | 20.5%
CCc1ccc(NC(=O)C2CCN(S(=O)(=O)c3ccc4c(c3)N(C(C)=O)CCO4)CC2)cc1 | 0.8 | -1.6% | 17.1 | x | -21.3% | -41.2%[inhibitor]
Cc1ccc(NC(=O)C2Cc3ccccc3C(=O)O2)cc1 (configuration not stated) | -1.0 | x | 2.3 | 2.3 | -6.4% | 4.6%[15.4 µM]
Cc1sc2nc(-c3ccccn3)[nH]c(=O)c2c1-c1ccccc1 | 0.0 | 3.8% | -3.5 | 4.6 | -27.2% | 14.3%
COc1ccc2nc(/N=C/c3c(C)[nH]n(-c4ccc(C)cc4)c3=O)sc2c1 | 0.1 | -2.0% | -2.4 | 4.9 | 5.1% | -0.5%[15.4 µM]
COC(=O)c1nn(-c2ccccc2)c(=O)cc1Oc1ccc(Cl)cc1 | 0.7 | 0.9% | -18.7 | 1.9 | -3.3% | -2.3%
CCN(CC)c1ccc(N2C(=O)CSC2=S)cc1 | 1.2 | -1.3% | -22.2 | 0.0 | -13.5% | 10.9%[15.4 µM]
CCOC(=O)Cn1cc(C(=O)c2cccs2)c2ccccc21 | 4.6 | -0.3% | -2.6 | 3.3 | -7.3% | 11.9%
CCSc1ncc(Cl)c(C(=O)Nc2ccc(S(=O)(=O)N3CCCCC3)cc2)n1 | 0.0 | -3.1% | -0.2 | x | x | x
COc1ccc(-c2cc(C(=O)Nc3cccc(O)c3)no2)cc1 | x | -4.8% | x | 5.0 | -17.1% | 22.6%
CC1=C(C(=O)OCC2CCCO2)C(c2ccccc2Cl)NC(=O)N1 (configuration not stated) | -0.9 | 4.2% | 0.3 | -2.5 | -3.0% | -28.4%
COc1ccc(CNC(=O)C(=O)NCC2OCCN2S(=O)(=O)c2ccc(F)cc2)cc1 (configuration not stated) | 0.3 | 0.9% | 9.6 | x | 4.6% | -47.4%[inhibitor]
CCC1(CC)Cc2ccccc2-c2[nH]c(=S)[nH]c(=O)c21 | 1.7 | x | 29.4 | x | 11.5% | 6.31µM*
CC(=O)N1CCc2c(sc3nc(SCC(C)C)n(-c4ccc(C)c(Cl)c4)c(=O)c23)C1 | 0.9 | 3.6% | 3.6 | x | x | x
CCCOP(=O)(c1ccc(N(C)C)cc1)C(O)c1c(Cl)cccc1Cl (configuration not stated) | -0.7 | -0.6% | 8.0 | -0.8 | -2.3% | 16.1%[15.4 µM]
CCOc1ccc(N2C(=O)C3=C(C(c4ccc(Cl)cc4)=NCCN3)C2c2cccnc2)cc1 (configuration not stated) | 1.0 | x | 22.1 | -1.0 | 4.4% | 6.6%[15.4 µM]
CN(c1cccc2cccnc12)S(=O)(=O)c1ccccc1 | -0.2 | x | -11.0 | -0.2&-4.3 | 4.0% | 11.1%
N#Cc1cccc(NC(=O)Cn2cnc(S(=O)(=O)N3CCCCC3)c2)c1 | -0.5 | x | 11.2 | 0.6 | 14.1% | -1.0%
CC12CCC(C(=Nc3ccc(N=C4C(=O)C5(C)CCC4C5(C)C)cc3)C1=O)C2(C)C | -0.8 | -0.2% | 12.4 | 0.2 | 3.1% | 4.7%
Cc1cccc(NC(=O)CCS(=O)(=O)c2cccc3nonc23)c1C | -0.2 | x | 26.4 | -12.2 | 4.0% | -11.4%[15.4 µM]
CCc1nnc(NC(=O)c2ccc(S(=O)(=O)NC3CCCCC3)cc2)s1 | 1.2 | -1.1% | -5.6 | 0.4 | -12.9% | 9.8%
Cc1ccccc1Cn1c(SCc2ccc(C(=O)NC(C)c3ccccc3)cc2)nc2ccncc21 (configuration not stated) | 0.5 | -9.0% | -5.2 | x | x | x
O=c1c(Cc2ccc(Cl)cc2Cl)c(O)ccn1Cc1ccncc1 | 0.6 | -2.2% | 13.3 | -5.2 | -9.5% | -2.4%
CN1C(=O)CC(Sc2ncccc2C(=O)O)C1=O (configuration not stated) | 0.1 | -2.5% | 8.7 | -2.1 | 0.1% | -8.3%
Cc1cccc(/C=C(\C#N)C(=O)Nc2ccccn2)c1 | 0.8 | 3.1% | u | u | 6.4% | u
COC(=O)Cn1c(C)nc2c(sc3nc(C)cc(C)c32)c1=O | -0.5 | u | 5.7 | 3.4 | -4.3% | 40.1%
CNC(=O)C[C@H]1C(=O)N(c2ccc(Br)cc2)C[C@@H]1CSC | -0.6 | 2.3% | 3.1 | x | x | u
Cc1ccc(C2=NOC(C)(c3nnc(-c4ccc(Cl)cc4)o3)C2)cc1 (configuration not stated) | -1.2 | 2.0% | -8.4 | -2.8 | 1.6% | x
O=C(CSc1nnc(C2CC2)n1-c1ccccc1)NCc1ccco1 | 1.4 | 3.4% | 8.5 | 6.4 | -1.5% | 4.1%
O=C(CC1C(=O)NCCN1Cc1ccccn1)NCCc1ccccc1F (configuration not stated) | 0.4 | 1.7% | -1.3 | x | -3.1% | 1.2%
CC1CCN(C(=O)COC(=O)c2ccccc2NC(=O)c2ccco2)CC1 | 0.4 | x | -9.2 | 2.0 | -20.2% | 34.7%
C=CCNC(=O)CSc1ccc(Cl)cc1 | -0.2 | 0.3% | 4.3 | -0.5 | 3.5% | -43.7%
O=C(COc1ccc(Br)cc1Br)Nc1ccc(S(=O)(=O)Nc2ncccn2)cc1 | 1.0 | -3.8% | 12.6 | x | x | x
O=C(COC(=O)CNC(=O)c1cccc([N+](=O)[O-])c1)Nc1nc2ccccc2s1 | 1.3 | 1.4% | 1.9 | 0.0 | -1.7% | -10.8%
COc1cc(S(=O)(=O)N2CCC(N3CCCCC3)CC2)ccc1-n1cnnn1 | -0.1 | 0.1% | 9.5 | 1.7 | 7.1% | 5.7%
Cc1ccc(/C=N/NC(=O)c2cc(-c3ccncc3)nc3ccccc23)o1 | -0.6 | -0.6% | -0.3 | 0.7 | -5.7% | 27.5%
CCOc1ccc(Nc2nc3cc(Cl)c(Cl)cc3nc2-n2nc(C)cc2C)cc1 | 0.5 | -1.6% | 4.1 | x | x | x
COc1cc(Cl)c(C)cc1NC(=O)Cn1c(C)c2cnn(-c3ccccc3)c(=O)c2c1C | -0.9 | -3.2% | 30.4 | x | x | x
CN(C)C(=O)c1cccc(-c2cccc(-c3nc(C(=O)NCc4ccccc4)cc4c3[C@H](CCO)N(S(=O)C(C)(C)C)C4)c2)c1 (some centres not stated) | 0.7 | -3.0% | -20.9 | x | x | x
O=C(NCC1CCCO1)C1CC(=O)N(C2CCCCCC2)C1 (configuration not stated) | 0.7 | 1.1% | -8.7 | 8.5 | 3.2% | -43.9%[inhibitor]

Later entries:
SMILES | TRPML1 agonist | ClpP mod | TRPML1 inh | Menin MLL FP FL | gsp antag | gsp ag
CC(C)Oc1ccc(CC2CC(=O)NC2=O)cc1 (configuration not stated) | -0.4 | u | -5.4 | 2.3 | 1.7% | -34.4%[inhibitor]
COc1cccc(NC(=O)C(Sc2nc3ccccc3c(=O)n2CC(C)C)c2ccccc2)c1 (configuration not stated) | 0.9 | x | 4.7 | 2.9 | 4.0% | -0.9%[15.4 µM]
NS(=O)(=O)c1ccc2ccccc2c1 | 0.2 | x | -13.7 | 0.8 | -10.2% | -14.1%[15.4 µM]
Cc1cc(C)n(-c2cc(N3CCN(C(=O)c4cccc(Br)c4)CC3)ccc2[N+](=O)[O-])n1 | 2.5 | -0.2% | -6.5 | 1.1 | -24.8% | 3.2%
COCCNC(=O)CSc1ccccc1C(=O)NC1CCSc2ccccc21 (configuration not stated) | -0.1 | x | 6.4 | x | 6.0% | -0.2%
CNc1snc(C)c1C(=O)OC(C)C(=O)Nc1cccc(OC)c1 (configuration not stated) | -0.8 | 0.3% | 17.2 | x | -4.3% | -1.6%
O=C(CCl)Nc1cccc(CP(=O)(c2ccccc2)c2ccccc2)c1 | -0.1 | x | -8.0 | 3.2 | -11.3% | 10.4%[15.4 µM]
O=S1(=O)NC(=NCC(c2ccco2)N2CCCCC2)c2ccccc21 (configuration not stated) | x | -3.8% | x | 3.5 | 6.2% | -6.4%
Cc1c(C(=O)N2CCC(C)CC2)c(S(=O)(=O)N(Cc2ccccc2)C(C)(C)C)c(C)n1C | 24.6 | 0.3% | -11.4 | x | x | x
CCOC(=O)[C@H]1[C@H]2COc3cc(OC)ccc3[C@@H]2N2C(=O)N(c3ccc(Cl)cc3)C(=O)[C@@]12C | 0.3 | -2.1% | 54.1 | -0.3 | u | x
Cc1ccc(CNC(=O)c2cc(-c3cc(C)cc(C)c3O)n[nH]2)cc1 | x | 0.4% | x | -1.9 | u | 0.1%
COc1ccc2oc(C(=O)OCC(=O)N(Cc3ccccc3)C(C)(C)C)c(C)c2c1 | 1.9 | 3.6% | -7.5 | x | -21.0% | 21.2%
CC(=O)CSc1ncnc2sc3c(c12)CCC3 | -1.3 | 1.6% | 4.0 | 1.9 | 13.1% | -1.8%[15.4 µM]
CCCOc1ccc(Cn2c(=O)sc3ccccc32)cc1 | 2.7 | -0.6% | -8.8 | x | x | x
